SARS PLP yeast: blocks SARS-CoV papain-like protease in a yeast assay. S. cerevisiae expressing SARS-CoV PLpro, growth rescue; control for the full effect not named in the record. Potency, µM (titrated, usually from 32.9 µM), inactives show at the highest dose activity, positive = growth rescue. 330,000 compounds, 0.19% hits; active means well fitted rising curve with a large enough effect; inconclusive means small, poorly fitted or top-dose-only effect; inactive means no such curve, though single readings can be large or run the other way; further: 0% is about no effect; nearly all actives have a fitted effect of over 55% in size; growth read by luminescence after 48 h
MARV entry inh: Marburg virus entry inhibition; Marburg virus pseudotyped entry inhibition, cell reporter; control for the full effect not named in the record; about a third of the inactives were read at about 46 µM; Potency, µM (top dose mostly 37.8 µM), inactives show at the highest dose activity change, negative = inhibition, actives largely listed as inhibitors; 300,000 compounds, 1.8% hits; AID 540276; active = well fitted inhibition curve with a large enough effect; inconclusive = small, poorly fitted or top-dose-only effect, or effect the other way; inactive = flat fitted curve, though single readings scatter; tested in HEK293 cells; about a fifth of its hits are not listed in these tables; further: on the % scale 0 is the no-effect control and ±100 the full control effect; luciferase read-out
Lassa entry inh: inhibitors of Lassa virus binding or cell entry. Potency, µM (doses to about 37.9 µM), for inactives: at the highest dose activity change, negative = inhibition, hits mostly inhibitors. 300,000 compounds, 1.2% hits. AID 540256. Lassa virus pseudotype entry inhibition, cell reporter; control for the full effect not named in the record; active means well fitted inhibition curve with a large enough effect; inconclusive means small, poorly fitted or top-dose-only effect, or effect the other way; inactive means flat fitted curve, though single readings scatter; tested in HEK293 cells; further: on the % scale 0 is the no-effect control and ±100 the full control effect; nearly all actives have a fitted effect of over 50% in size; luciferase read-out
NS1 function inh: blocks influenza NS1 protein function; AID 2326; S. cerevisiae slowed by influenza A NS1, growth recovery by OD600; Potency, µM (series often up to 46.1 µM), inactives show at the highest dose activity, positive = more growth; 270,000 compounds, 0.4% hits; active means well fitted rising curve with a large enough effect; inconclusive means small, poorly fitted or top-dose-only effect; inactive means no such curve, though single readings can be large or run the other way; further: nearly all actives have a fitted effect of over 50% in size
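Read-out: OD600 growth recovery of NS1-expressing budding yeast. Cells grown overnight at 30C in -URA glucose medium, washed, resuspended and diluted 1:100 in 2% galactose assay medium, pH 6.0. Same strain lacking NS1 served as positive control.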
RE007 growth inh: less growth of the S. pombe RE007 Vpr strain; S. pombe RE007 Vpr strain, BacTiter-Glo ATP luminescence, 24 h; control for the full effect not named in the record; Potency, µM (doses to about 92.2 µM), for the others: at the highest dose activity change, negative = less growth; 360,000 compounds, 0.21% hits; active = well fitted falling curve with a large enough effect; inconclusive = small, poorly fitted or top-dose-only effect; inactive = no such curve, though single readings can be large or run the other way;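 further: on the % scale 0 is the no-effect control and ±100 the full control effect; nearly all actives have a fitted effect of over 50% in size; the assay follows cell death caused by Vpr and the record does not say whether a fall means rescue or toxicity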
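Fission yeast strain RE007, carrying one chromosomally integrated HIV-1 vpr copy, was seeded at OD 0.01 in PMG+AL medium with 23 nL pinned compound. After 24 h at 30 °C and 99% humidity, viability was read by BacTiter-Glo luminescence.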
2A StopGo: FMDV 2A StopGo reporter, luciferase signal | Potency, µM (doses to about 57.9 µM), for the others: top-dose signal change, negative = less light | human cells with a luciferase reporter of 2A StopGo recoding; control for the full effect not named in the record | 410,000 compounds, 1.2% hits; active = well fitted falling curve with a large enough effect; inconclusive = small, poorly fitted or top-dose-only effect; inactive = no such curve, though single readings can be large or run the other way; tested in HEK293T cells; further: on the % scale 0 is the no-effect control and ±100 the full control effect; nearly all actives have a fitted effect of over 45% in size; luciferase light after 4 h
Cruzain Triton: blocks cruzain activity in presence of Triton detergent; 200,000 compounds, 0.43% hits; purified cruzain, Z-FR-AMC fluorescence, 0.01% Triton; Potency, µM, without a hit: max response, negative = inhibition, most hits filed as inhibitors; P25779;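 further: plate controls were neutral wells for no effect and buffer without enzyme for full effect; nearly all actives have a fitted effect of over 40% in size; top concentration of the series not given in the record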
Target sequence (P25779 123-467 limits assumed): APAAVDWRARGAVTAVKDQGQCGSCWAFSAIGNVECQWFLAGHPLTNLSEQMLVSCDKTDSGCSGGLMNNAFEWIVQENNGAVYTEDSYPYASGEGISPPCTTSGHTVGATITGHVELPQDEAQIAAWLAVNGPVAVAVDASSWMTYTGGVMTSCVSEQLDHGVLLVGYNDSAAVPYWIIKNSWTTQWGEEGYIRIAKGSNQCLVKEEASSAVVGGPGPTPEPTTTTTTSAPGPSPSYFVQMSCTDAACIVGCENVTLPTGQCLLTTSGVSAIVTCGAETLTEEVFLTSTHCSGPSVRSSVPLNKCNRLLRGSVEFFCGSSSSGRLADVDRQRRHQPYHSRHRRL
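15 min RT preincubation of 1.5 nM cruzain with compound, then 2 uM Z-FR-AMC added; kinetic AMC fluorescence, 60 s delta. Triton X-100 0.01%, pH 5.5.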
Cruzain inh noDet: blocks cruzain activity in detergent-free assay. P25779. purified cruzain, Z-FR-AMC fluorescence, no detergent. Potency, µM, for the others: max response, negative = inhibition, hits mostly inhibitors. 200,000 compounds, 2.3% hits;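 further: plate controls were enzyme without inhibitor for no effect and buffer without enzyme for full effect; nearly all actives have a fitted effect of over 40% in size; top concentration of the series not given in the record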
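Purified cruzain at 1.5 nM, pre-incubated 15 min with compound at room temperature in 100 mM sodium acetate pH 5.5, 5 mM DTT, 0.00005% Triton X-100. Reaction started with 2 uM Z-FR-AMC; AMC fluorescence increase over 60 s gives rate.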
* marks the source's active call; other numbers are inactive results; ? = inconclusive; . = not tested or not shown; & = joins results of further samples; [ ] = dose if it differs, or a comment. Unless noted, the call rests on the fitted dose curve; in most records, active means well fitted curve in the direction sought with a large enough effect; inconclusive means small, poorly fitted or top-dose-only effect, or another doubt; inactive means no such curve, though single readings can be large; an effect the other way counts as inactive or inconclusive. Potency means the concentration at half of the fitted maximal effect. Compounds were not picked by outcome; any-hit rate near 4.8%.

SMILES	SARS PLP yeast	MARV entry inh	Lassa entry inh	NS1 function inh	RE007 growth inh	2A StopGo	Cruzain Triton	Cruzain inh noDet
COc1ccc(-c2nc(C)c(CCNC(=O)c3cccs3)s2)cc1	.	.	-22%[46.1 µM]	.	.	32%[activator]	-9.4%	-1%
COc1ccc(S(=O)(=O)n2ccnc2)c2cccnc12	-3%	-4%	18%	0%	-14%	14%	1.3%	-9%
O=C(Nc1ccc(N2CCOCC2)c(F)c1)c1cccs1	-8%	-27%[46.1 µM]	?	-2%	?	7%	.	.
Cc1ccc(NC(=O)CSc2n[nH]c(-c3ccccn3)n2)cc1	-4%	4.5µM*	?	-10%	0%	0%	.	.
COc1ccccc1N(C)S(=O)(=O)c1ccc(C(=O)NCCc2ccc(F)cc2)cc1	-4%	-14%	?	-15%	8%	-21%	.	.
COc1cc(C(=O)NCc2cccc3ccccc23)cc(Cl)c1OC	-13%	?	10%	-64%	-1%	-9%	0.8%	-5%
COc1cc(C(=O)N2CCCN(c3nc4cc(C)ccc4cc3C#N)CC2)cc(OC)c1OC	4%	?	-30%	-6%	7%	?	-1.0%	?
CC(Oc1ccc(F)cc1)C(=O)Nc1cc(-c2ccc(F)c(F)c2)no1 (stereo not drawn)	.	4%[46.1 µM]	-8%[46.1 µM]	.	.	-25%	-11%	-11%
Nc1nc2ncc(C(=O)c3cc(F)ccc3O)cc2s1	1%	0%[46.1 µM]	-5%	-1%	6%	43%[activator]	.	.
CCCn1c(C(CO)Nc2nc(C)cs2)nc2ccccc21 (stereo not drawn)	13%	.	.	8%	9%	1%	.	.
CC(C)OC(=O)CSc1nnc(COc2ccc([N+](=O)[O-])cc2)n1C	0%	39%[46.1 µM]	7%	.	1%	-9%	.	.
COc1ccc(C(=O)NCC(=O)OCc2ccc(F)cc2)cc1	-1%	2%[46.1 µM]	-7%	.	-17%	-6%	.	.
CCOC(=O)c1sc2ccccc2c1S(=O)(=O)N1CCN(c2ccccc2F)CC1	.	.	-16%[46.1 µM]	.	.	-8%	-4.5%	-27%
O=C(O)Cn1c(=O)n(Cc2ccccc2)c2ccccc21	2%	.	.	5%	3%	-16%	.	.
CC(C)(C)C1CCC(OCC(O)CN2CCN(c3ccccn3)CC2)CC1 (stereo not drawn)	-12%	?	?	6%	3%	?	.	.
COc1ccc(N(C(=O)c2cnccn2)C(C(=O)NC2CCCCC2)c2ccc(Cl)cc2)cc1 (stereo not drawn)	.	1%	3%	.	-8%	-6%	.	.
OC(CC#CCN1CCOCC1)(c1ccccc1)c1ccccc1	9%	.	.	24%	-12%	2%	.	.
CCc1ccc(C(=O)/C=C/NCc2ccc(F)cc2)cc1	-10%	?	-15%	-29%	.	24%	-8.2%	-3%
c1ccc2[nH]c(SCC3CCCCO3)nc2c1 (stereo not drawn)	-2%	?	-11%	3%	2%	16%	.	.
COc1ccc(/C=N/n2cc(-c3ccccc3)nc2N)cc1	-3%	?	-20%	4%	14%	37%[activator]	-5.0%	?
Cc1cc2sc(C(=O)O)c(C)c2s1	-17%	8%	-2%	-22%	-7%	3%	-1.1%	0%
CC1Cc2nc(SCC(=O)NCc3ccco3)n(-c3ccccc3)c(=O)c2S1 (stereo not drawn)	14%	-34%	1%	-16%	2%	-24%	-3.3%	-2%
Cc1nc2ccccc2cc1C(=O)NCc1ccccc1	.	9%	28%	.	-4%	-21%	.	.
CC(NC(=O)N(Cc1ccccc1)Cc1ccc2c(c1)OCO2)(C(F)(F)F)C(F)(F)F	-10%	?	?	1%	1%	10%	-3.3%	0%
Cc1cccc(CSc2ncc(CO)n2Cc2ccc(F)cc2)c1	.	.	14%[46.1 µM]	.	.	0%	-6.3%	6%

The listing continues.
SMILES	SARS PLP yeast	MARV entry inh	Lassa entry inh	NS1 function inh	RE007 growth inh	2A StopGo	Cruzain Triton	Cruzain inh noDet
Cc1c(C(N)=O)cc([N+](=O)[O-])cc1[N+](=O)[O-]	.	-15%	?	.	3%	-7%&-12%	-0.1%	-3%
C/C(=N\NC(=O)c1nnn(-c2nonc2N)c1CSc1ccccc1)c1ccc2c(c1)OCO2	1%	1%[46.1 µM]	10%[46.1 µM]	15%	6%	3%	.	.
C(#CCN1CCOCC1)COC(c1ccccc1)c1ccccc1	22%	6%	?	-7%	9%	-4%	-1.3%	28%
COc1cc(OC)cc(C(=O)N[C@H](C(=O)NCCc2ccc(S(N)(=O)=O)cc2)C(C)C)c1	23%	8%[46.1 µM]	.	2%	-13%	8%	.	.
COc1ccc(N2CCN(C3C(=O)c4ccccc4N3C(C)=O)CC2)cc1 (stereo not drawn)	.	.	11%[46.1 µM]	.	.	-3%	0.7%	-4%
O=c1c2ccccc2nc(-c2ccc(Cl)cc2Cl)n1-c1ccncc1	-10%	-22%	-7%	-16%	?	-25%	3.0%	-3%
O=C1c2ccccc2C(Nc2ccc(F)c(Cl)c2)N1c1ccccn1 (stereo not drawn)	-1%	.	.	-11%	-1%	-22%	-1.1%	-10%
Cc1csc(SCC(=O)Nc2sccc2C#N)n1	-1%	4.5µM*	.	.	7%	-52%	.	.
O=C(N/C(=C/c1cccs1)C(=O)N1CCOCC1)c1ccco1	-21%	?	6%	-5%	5%	-20%	-4.3%	7%
COC(=O)c1cc(S(=O)(=O)NCCN2CCN(c3ccccc3F)CC2)c[nH]1	3%	-1%[46.1 µM]	8%[46.1 µM]	-5%	7%	16%	.	.
COc1ccc(CCNC(=O)c2cc3c(=O)n4ccccc4nc3n(C3CCCCC3)c2=N)cc1	1%	.	.	21%	-4%	?	.	.
COc1ccc(-n2c(SCC(=O)NCc3ccccc3)nc3n[nH]c(C)c3c2=N)cc1	.	.	?	.	.	-28%	-0.4%	-16%
Cc1ccc(NC(=O)CSc2nc(-c3ccco3)nc3cc(=O)[nH]n23)cc1C	.	.	0%[46.1 µM]	.	.	-27%	-9.0%	-9%
COc1ccc2[nH]c(C(=O)N3CCN(C)CC3)c(C)c2c1	-2%	2%[46.1 µM]	18%[46.1 µM]	0%	-2%	0%	.	.
c1c2c(cc3sc(N4CCCCC4)nc13)OCO2	-7%	?	6.3µM*	-32%	45µM*	-39%	-3.0%	9%
COc1ccccc1NC(=O)COc1ccc(C(=O)OCC(=O)N2CCCC2=O)cc1OC	2%	3%	23%	2%	-10%	-8%	4.9%	-15%
O=C(COc1ccc(Cl)cc1)Nc1cc(S(=O)(=O)N2CCCCC2)ccc1N1CCCCC1	2%	10%	2%	12%	-9%	-8%	-1.8%	16µM*
CC(=O)Oc1cc2c3c(c1)/C(=C1/SC(=S)NC1=O)C(=O)N3C(C)(C)C=C2C	0%	.	.	5%	-2%	?	.	.
Cc1oc(-c2ccc(Cl)cc2)nc1CSCC(=O)NC1CCN(Cc2ccccc2)CC1	?	?	?	-5%	4%	?	.	.
COc1ccc(CN(C)C(=O)CCCNC(=O)c2ccc(Cl)cc2)cc1	0%	?	.	-4%	5%	-16%	.	.
Cn1c(=O)c2c(nc3n2CCCN3CCc2ccccc2)n(C)c1=O	4%	.	.	-2%	-10%	-19%	.	.
O=C(CN(Cc1ccc(F)cc1)C(=O)c1csnn1)NCc1ccc2c(c1)OCO2	0%	-17%[46.1 µM]	.	-29%	19%	1%	.	.
O=C(NCC(c1ccc(F)cc1)N1CCOCC1)c1ccccc1F (stereo not drawn)	1%	22%[46.1 µM]	2%	-1%	-15%	-15%	.	.
CC(C(=O)NCC1CCCO1)N(C(=O)c1snc(C(N)=O)c1N)c1cccc(F)c1 (stereo not drawn)	6%	-15%	1%	-5%	-8%	0%	-1.1%	5%
Cc1ccc(S(=O)(=O)Nc2cccnc2)c(C)c1C	-7%	.	.	11%	5%	40%[activator]	.	.

Additional records follow.
SMILES	SARS PLP yeast	MARV entry inh	Lassa entry inh	NS1 function inh	RE007 growth inh	2A StopGo	Cruzain Triton	Cruzain inh noDet
CCCCNc1ccc(C(CC(N)=O)NC(=O)Cc2cccc3ccccc23)cc1[N+](=O)[O-] (stereo not drawn)	2%	.	.	15%	-12%	-16%	.	.
NNP(=O)(CC(=O)c1ccccc1)c1ccccc1 (stereo not drawn)	5%	.	.	6%	-3%	-3%	.	.
CCOc1ccc(NS(=O)(=O)c2ccc(C)c(C(=O)NCCCn3ccnc3)c2)cc1	3%	3%[14.2 µM]	-12%	14%	4%	17%	.	.
CCn1nc(C)c(CN2CCc3c([nH]c4ccccc34)C2c2ccc(F)c(OC)c2)c1C (stereo not drawn)	-2%	?	23%[46.1 µM]	-7%	-19%	-9%	.	.
COc1ccc(CNc2ccc3cn[nH]c3c2)c(OC)c1OC	20%	-6%	-32%	3%	-5%	?	-3.2%	0%
C=CCn1c(CSc2nc3ccccc3s2)nnc1SCC(=O)NCc1ccccc1	-2%	?	14%	-10%	12%	-3%	-2.5%	12%
Cc1ccc(C)c(S(=O)(=O)NCc2ccc(C(=O)N3CCOCC3)cc2)c1	-5%	5%[46.1 µM]	14%[46.1 µM]	5%	-15%	21%	.	.
CCOc1cc(N2CCOCC2)c(OCC)cc1NC(=O)Cc1ccccc1	1%	17%[46.1 µM]	-18%[46.1 µM]	1%	-3%	-2%	.	.
CCCC(C)NC(=O)C1CCN(S(=O)(=O)c2ccccc2)CC1 (stereo not drawn)	2%	7%	-5%	6%	3%	-13%	5.8%	-7%
O=C(CSc1nnc(-c2ccccc2Cl)o1)Nc1ccc2c(c1)OCCO2	2%	29%	?	-3%	-11%	10%	-6.0%	12%
COc1ccc(OCC2c3cc(OC)c(OC)cc3CCN2C(=O)c2ccc(F)cc2)cc1 (stereo not drawn)	.	.	-39%[46.1 µM]	.	.	0%	11%	?
O=C(/C=C/c1ccc([N+](=O)[O-])cc1)c1ccco1	1%	.	.	-23%	?	-8%	.	.
O=C(CN1CCN(Cc2ccccc2)CC1)c1c[nH]c2ccccc12	0%	-2%	-12%	-2%	-15%	-9%	0.5%	-10%
Cc1cccc(CS(=O)(=O)Cc2ccc(C(=O)NCc3cccs3)o2)c1	-1%	5%[46.1 µM]	?	.	-11%	-22%	.	.
O=S1(=O)NC(=NCc2ccccc2)c2ccccc21	-8%	-1%	1%	-2%	-8%	31%[activator]	2.6%	-13%

Source: PubChem (National Center for Advancing Translational Sciences (NCATS))
